# PV pol inh – poliovirus RdRp elongation inhibitors, primary screen, biochemical, fluorescence polarization, total intensity; 150,000 tested, 0.66% active; % elongation, % (compound at 16.7 µg/mL); Genome polyprotein (Poliovirus type 1 (strain Mahoney)), P03300; poliovirus polymerase elongation; active compounds read low; in the data active = % elongation below about 90%; also: some results filed as inactive read as strong as hits
# Target sequence (P03300 1749-2209 limits assumed): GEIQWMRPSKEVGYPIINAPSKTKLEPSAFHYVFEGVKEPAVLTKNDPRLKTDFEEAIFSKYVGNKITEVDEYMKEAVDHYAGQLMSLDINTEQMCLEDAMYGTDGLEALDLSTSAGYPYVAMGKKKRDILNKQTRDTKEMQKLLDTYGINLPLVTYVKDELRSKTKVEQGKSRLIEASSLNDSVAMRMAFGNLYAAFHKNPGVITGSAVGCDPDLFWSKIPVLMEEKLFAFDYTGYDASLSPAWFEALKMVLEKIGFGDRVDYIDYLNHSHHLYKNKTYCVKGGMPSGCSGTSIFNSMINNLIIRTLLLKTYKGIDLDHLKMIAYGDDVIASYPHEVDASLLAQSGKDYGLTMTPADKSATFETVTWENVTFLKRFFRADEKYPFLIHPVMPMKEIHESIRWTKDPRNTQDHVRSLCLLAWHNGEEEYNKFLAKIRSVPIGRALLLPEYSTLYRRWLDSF
# PV pol inh intensity – recorded beside PV pol inh, whose call it bears; % elongation; measured here: total intensity read-out; formula for this scale not given here;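 total fluorescence in place of polarization; lower means less elongation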
# The depositor's hits bear a star. Some of the compounds tested; rates above refer to the full screens.
SMILES,PV pol inh,PV pol inh intensity
Cc1cc2ccccc2n1CCNC(=O)c1ccc(Br)cc1,111,112
O=C(Nc1cccc(-c2nc3ccccc3o2)c1)C(F)(F)F,103,113
O=C(CCCCCn1c(=O)[nH]c2ccccc2c1=O)NCc1ccccc1,108,111
Cc1ccc(C)c(N2C(=O)N(Cc3cc(=O)n4ccccc4n3)c3ccccc3S2(=O)=O)c1,100,105
Cc1oc(-c2cccc(Cl)c2)nc1CN1CCCC(C(=O)N2CCN(c3ccc(F)cc3)CC2)C1 (stereo not given),105,98
Cn1c(=O)[nH]c(=O)c2c1nc1n2CCN1c1ccccc1,101,99
CCOC(=O)c1ccc(NC(=O)c2c(NCc3ccc(OC)c(OC)c3OC)sc3c2CCC(C)C3)cc1 (stereo not given),100,97
COc1ccccc1C(=O)Nc1nc2nc(-c3ccccc3)cc(=O)n2[nH]1,108,95
CCOC(=O)c1c(C)oc2nc(C)nc(NCC3CCN(Cc4ccccc4C)CC3)c12,115,115
Cc1sc2ncn(CC(=O)Nc3ccc(F)cc3Cl)c(=O)c2c1S(=O)(=O)N1CCN(c2ncccn2)CC1,106,110
CC(C)(C)C1CCc2nc(NC(=O)COc3ccccc3[N+](=O)[O-])sc2C1 (stereo not given),106,108
O=C(NCCc1ccccc1)c1ccc2nc(CCc3ccccc3)oc2c1,112,108

# An excerpt of these results, field by field:
canonical_smiles: Cc1oc(-c2cccc(Cl)c2)nc1CN1CCCC(C(=O)N2CCN(c3ccc(F)cc3)CC2)C1 (stereo not given)
  PV pol inh = 105	PV pol inh intensity = 98
canonical_smiles: Cn1c(=O)[nH]c(=O)c2c1nc1n2CCN1c1ccccc1
  PV pol inh = 101	PV pol inh intensity = 99
canonical_smiles: CCOC(=O)c1ccc(NC(=O)c2c(NCc3ccc(OC)c(OC)c3OC)sc3c2CCC(C)C3)cc1 (stereo not given)
  PV pol inh = 100	PV pol inh intensity = 97

# Other compounds follow.
SMILES,PV pol inh,PV pol inh intensity
COc1cccc(N2CCN(C(=O)c3cnc4c(C)cccn4c3=O)CC2)c1,110,112
COc1ccc(CNCCC(c2ccccc2)c2ccc3c(c2)OCO3)cc1 (stereo not given),105,107
Cc1ccc(S(=O)(=O)CCC(=O)N2CCN(c3nc4c(C)c(Cl)ccc4s3)CC2)cc1,102,106
Cc1cccc(NC(=O)c2sc3ncnc(N(C)C4CCCCC4)c3c2C)c1C,112,102
Cc1ccc(C)c(S(=O)(=O)c2cn(Cc3ccccc3)c3cc(N4CCCC4)c(F)cc3c2=O)c1,109,112
COc1cccc(NC(=O)CSc2nccn2C2CCCC2)c1,101,105
COc1ccc(Cn2ccc3nc(C)c(C(=O)Nc4ccc(OC)cc4OC)cc3c2=O)cc1,115,100
Cc1ccc(NC(=O)c2oc3ccccc3c2NC(=O)c2ccccc2C)cc1,109,109
CC(C)Cn1c(=O)c2ccccc2n2c(CCC(=O)NCc3ccccc3Cl)nnc12,110,110
CCCSc1nnc2[nH]c(=O)cc(C)n12,111,104
O=C(COc1ccccc1[N+](=O)[O-])N(Cc1ccco1)c1ccccn1,112,113
COc1ccc(CCNC(=O)c2cc3c(=O)oc4ccc(C)cc4c3s2)cc1OC,104,107

# (listing goes on)
SMILES,PV pol inh,PV pol inh intensity
CCOC(=O)c1ccc(N2CCN(c3cccc(Cl)c3)CC2)c(NC(=O)Nc2ccc(Cl)cc2)c1,108,110
Cc1ccccc1NC(=O)c1ccc(N(Cc2ccccc2)S(C)(=O)=O)cc1,106,110
CC1CCN(S(=O)(=O)c2ccc3c(c2)c(=O)c(C(=O)NCCc2ccccc2)cn3C)CC1,105,106
CC1=C(c2ccc(C)cc2)S(=O)(=O)NC1=NCc1ccccc1Cl,109,117
COC(=O)c1ccccc1NC(=O)CCn1nc(C)c2c(C)n(-c3ccccc3)nc2c1=O,108,112
Cc1ccc2oc(-c3ccc(C)c(NC(=O)c4ccc(-c5ccccc5[N+](=O)[O-])o4)c3)nc2c1,107,97
Cc1ccc(-c2onc(C)c2C)cc1S(=O)(=O)Nc1cccc(Cl)c1C,103,100
Cc1nnc(N2CCCC(C(=O)Nc3cc(F)ccc3F)C2)c2nn(-c3ccccc3)c(C)c12 (stereo not given),112,110
O=C(COc1ccc(Br)cc1)Nc1ccc(C(=O)OC2CCCCC2)cc1,105,106
C=Cc1ccc(CSc2nnc(C)n3c2cc2occc23)cc1,110,105
CCOC(=O)N1CCN(Cc2nc3cc(NC(=O)c4cccc(C)c4)ccc3n2C(C)C)CC1,104,109
CCOC(=O)c1c(-c2ccc(C)cc2)csc1NC(=O)c1cc(=O)c2cc(Cl)ccc2o1,106,93

# Carrying on:
SMILES,PV pol inh,PV pol inh intensity
COc1ccc(NS(=O)(=O)c2c(C)nc3scc(C)n3c2=O)cc1,109,113
CCCCn1c(=N)c(S(=O)(=O)c2ccc(Cl)cc2)cc2c(=O)n3cccc(C)c3nc21,109,114
CCc1nn2c(=O)cc(COC(=O)c3ccccc3NC(=O)C3CCCCC3)nc2s1,102,107
COC(=O)Cn1c(=O)c2cccn2c2ccc(F)cc21,104,107
Cc1ccccc1NC(=O)c1sc2nc3n(c(=O)c2c1C)CCC3,102,100
COC(=O)c1ccc(NC(=O)CN2CCCN(Cc3ccc(Cl)cc3)S2(=O)=O)cc1,101,105
COc1ccc(Cn2ccn(Cc3cccc(C)c3)c(=O)c2=O)cc1,100,93
CCOC(=O)c1c(-c2ccc(OC)cc2)oc2ccc(OCc3ccc(C(=O)OC)cc3)cc12,107,108
COc1ccc(-c2cc(C(F)(F)F)n3nc(C(=O)Nc4cc(C)ccc4C)cc3n2)cc1,109,112
CCn1c2c(c(=O)n3ncc(C(=O)Nc4ccc(OC(F)(F)F)cc4)c13)CN(Cc1ccc(OC)cc1)CC2,113,115
Cc1ccc(Cn2nnc(C(=O)Nc3ccc(F)c(F)c3)c2N)cc1,101,102
CCCCNC(=O)CCCn1c(=O)c2ccccc2n(CC(=O)Nc2ccccc2OCC)c1=O,108,108

# Next part
SMILES,PV pol inh,PV pol inh intensity
CCc1ccc(OC(C)C(=O)N2CCC(c3nc4ccccc4o3)CC2)cc1 (stereo not given),100,104
CCOc1ccc(NC(=O)CCC(=O)N2CCSc3ccccc32)cc1,103,108
CCc1ccc(NC(=O)COCc2cc(-c3ccc(F)cc3)on2)cc1,106,108
O=C(Nc1cccc(C(F)(F)F)c1)Nc1ccc2snnc2c1,110,112
COc1cccc(NS(=O)(=O)c2ccc3[nH]cc(C(=O)N(C)Cc4ccco4)c(=O)c3c2)c1,104,106
CCN1CCN(c2ncnc3c2cnn3-c2ccc(C)cc2)CC1,108,115
CCOCCn1ccc2c(OCC(=O)NCc3ccc(C)cc3)cccc2c1=O,102,107
Cc1ccc2c(c1)N(C(=O)Nc1cccc3c1CCCC3)CC(C)O2 (stereo not given),106,111
Cc1ccccc1-c1nc(CS(=O)(=O)CC(=O)NCC(C)c2ccccc2)c(C)o1 (stereo not given),102,100
CCOCCCNC(=O)C1CCN(c2nc3ccc(Cl)cc3[nH]2)CC1,112,110
Cc1cc(C)c(Cn2c(C)c(CNCc3ccccc3C)c(C(=O)O)c2C)c(C)c1,105,104
CCCSc1ncnc2c1c(-c1ccccc1)cn2-c1ccccc1OC,99,102

# Next section:
SMILES,PV pol inh,PV pol inh intensity
N#Cc1ccc(NC(=O)c2ccc3c(c2)nnn3C2CCCC2)cc1,101,95
CC(=O)Nc1cc(NC(C)=O)cc(-c2nc3ccccc3[nH]2)c1,102,108
CCc1nonc1NC(=O)c1oc2ccccc2c1C,112,113
Cc1ccc(N2CCN(C(=O)c3c(C)oc4ncnc(N5CCOCC5)c34)CC2)c(C)c1,112,113
Cc1cc(OCC(=O)NCC2(N3CCN(C)CC3)CCCCC2)cc(C)c1Cl,111,115
CCn1c(CN2CCN(C)CC2)nc2cc(NC(=O)c3ccc([N+](=O)[O-])cc3)ccc21,106,110
CCN(CC)S(=O)(=O)c1ccc(NC(=O)[C@H](CSCc2ccccc2)N2Cc3ccccc3C2=O)cc1,110,107
O=S(=O)(Nc1cccc(-c2ccc(N3CCOCC3)nn2)c1)c1ccc(F)c(C(F)(F)F)c1,105,105
COc1cccc(NC(=O)Cn2c(=O)n(CCCCC(=O)NCCc3ccccc3)c(=O)c3ccccc32)c1,107,104
Cc1c(C)n(Cc2ccccc2)c2ccc(C(=O)N3CCN(c4ccccc4)CC3)cc12,107,113
Cc1ccc(N(C)C(=O)c2sc3nc4n(c(=O)c3c2C)CCCC4)cc1C,111,107
COc1ccc(/C=C/c2onc(C)c2S(=O)(=O)N2CCC(C(=O)N3CCCCC3)CC2)cc1,106,101

# Next part
SMILES,PV pol inh,PV pol inh intensity
COc1ccc(Cl)cc1NC(=O)CN(c1cccc(C)c1C)S(=O)(=O)c1ccccc1,101,105
Cc1ccc(Cn2cccc(C(=O)Nc3nnc(C)s3)c2=O)cc1,105,102
CCCOC(=O)c1c(C)oc2c1cc(NS(=O)(=O)c1ccc(OCC)cc1)c1ccccc12,103,110
CC(C)CCn1c(=O)c2sccc2n2c(CCCC(=O)NCCc3ccccc3)nnc12,121,120
O=C(Nc1cccc(F)c1)C1CCN(S(=O)(=O)c2ccc3[nH]c4c(c3c2)CCCCC4)CC1,105,110
COc1ccc(N2CCN(CC(O)COc3ccc(C)cc3C)CC2)cc1 (stereo not given),109,106
O=C(O)c1ccc(NC(=O)c2ccc(Br)c(S(=O)(=O)N3CCCC3)c2)cc1,104,107
Cc1ccc(C)c(NC(=O)CCc2c(C)nn(-c3ccc(N4CCCC4)nn3)c2C)c1,106,114
O=c1c2sc3ccccc3c2n(Cc2ccccc2)c(=O)n1CCc1ccccc1,102,104
O=C(Cn1c(=O)n(CC2CCC(C(=O)NCCc3ccccc3)CC2)c(=O)c2ccccc21)Nc1cccc(F)c1 (stereo not given),107,109
C#CCSc1nc(-c2ccccc2)c2cc(Cl)ccc2n1,110,111
Cn1cc(/C=C/c2nc3ccccc3c(=O)n2-c2ccccc2)c2ccccc21,107,110

# (more compounds)
SMILES,PV pol inh,PV pol inh intensity
Cn1c2ccccc2c2cnn(CC(=O)NCc3ccc(Cl)cc3)c(=O)c21,109,109
Cc1cc(C)cc(-n2ccnc(NCc3ccc(F)cc3)c2=O)c1,109,112
CC(C)Cn1nc(NC(=O)c2cccc(Cl)c2)c2cc3ccccc3nc21,119,112
O=C(NCc1ccco1)c1ccc2c(c1)N(Cc1ccccc1F)C(=O)c1ccccc1S2(=O)=O,104,106
COc1ccc2c(c1)cc(CNc1ccc(OC)c(OC)c1)c(=O)n2CC(=O)Nc1ccccc1C,108,104
COc1ccc(-c2c(C#N)c(SCC(=O)Nc3ccc(C)cc3)nc(C)c2C(=O)Nc2ccccc2)cc1,104,112
Cc1ccc(Cl)cc1N1CCN(C(=O)c2cc3c(-c4ccccc4F)nn(C)c3s2)CC1,107,110
COc1cc(-c2noc(-c3ccc(NCC4CCCO4)c([N+](=O)[O-])c3)n2)cc(OC)c1OC (stereo not given),108,110
CCCS(=O)(=O)Nc1cccc(-c2cn3ccc(C)cc3n2)c1,98,103
Cc1ccc2oc(=O)c3cc(C(=O)NCCCOC(C)C)sc3c2c1,104,109
CCCN(C(=O)CCn1cnc2onc(-c3ccc(F)cc3)c2c1=O)c1ccccc1C,102,106
O=c1c2cc3c(cc2nc2sc(Nc4ccc(F)c(Cl)c4)nn12)OCO3,108,105

# Later entries:
SMILES,PV pol inh,PV pol inh intensity
CCC(=O)N1CCc2cc(S(=O)(=O)NCCC(=O)NC(C)c3ccccc3)ccc21 (stereo not given),107,110
COc1ccc(CNC(=O)CCCn2c(=O)c3cccn3c3ccc(F)cc32)cc1OC,107,111
COc1ccc(-n2c(/C=C\c3ccccc3F)nc3ccccc3c2=O)cc1OC,111,113
CCOc1ccc(C2CC(=O)c3c([nH]c(C(=O)OC4CCCCCC4)c3C)C2)cc1 (stereo not given),105,109
Nc1c(C(=O)Nc2ccccc2Cl)c2ccccn2c1C(=O)c1ccccc1,104,106
Cc1ccc(NC(=O)CCc2c(C)nn(-c3ccc(N4CCOCC4)nn3)c2C)c(C)c1,108,106
COc1cccc(Nc2nc3cc(C)ccc3nc2NS(=O)(=O)c2ccc(Cl)cc2)c1,99,104
O=S(=O)(NCc1csc(-c2ccccc2)n1)c1cccc(F)c1,109,110
Cc1ccc(-n2ncc3c(NCC(C)C)ncnc32)c(C)c1,99,107
COc1cc(Cl)c(C)cc1Nc1nc2ccccc2n2cnnc12,107,104
CCC(=O)N1CCc2cc(S(=O)(=O)NCCC(=O)NCc3ccc(C)cc3)ccc21,106,111
CCC(CC)C(=O)Nc1ccc2nc(SCc3ccccc3)sc2c1,111,106

# Profiles, quoted from the list. Order of values: PV pol inh | PV pol inh intensity
# CCC(=O)N1CCc2cc(S(=O)(=O)NCCC(=O)NCc3ccc(C)cc3)ccc21 reads 106 | 111
# CC1CCN(S(=O)(=O)c2ccc3c(c2)c(=O)c(C(=O)NCCc2ccccc2)cn3C)CC1 reads 105 | 106
# Cc1ccc(NC(=O)c2oc3ccccc3c2NC(=O)c2ccccc2C)cc1 reads 109 | 109

# Later entries.
SMILES,PV pol inh,PV pol inh intensity
COc1ccc(CCNC(=O)CN2C(=O)COc3ccccc32)cc1OC,120,118
CCc1ccc(CNC(=O)c2cc3c(=O)n(CC)c4ccccc4c3s2)cc1,105,108
O=C(Nc1ccccc1OCc1cc(=O)n2ccccc2n1)c1ccccc1F,105,105
COc1ccccc1-n1c(=O)n(C)c2c(C(N)=O)nc(-c3cccc(OC)c3OC)nc21,109,103
CCCN(CCC)C(=O)CN1C(=O)CSc2ccc(S(=O)(=O)N3CCC(C)CC3)cc21,107,109
COC(=O)C(NC(=O)CCc1c(C)nc2c(c(C)nn2-c2ccccc2)c1C)C(C)C (stereo not given),106,111
Cc1cccc(Cn2c(-c3cccs3)nc3ccccc32)c1,106,110
Nc1nc(Nc2ccccc2F)sc1C(=O)c1ccc(Cl)cc1,100,104
COC(=O)COc1ccc(Oc2nc(NC(C)(C)C)nc(N3CCOCC3)n2)nn1,107,111
CCOc1ccc(C2=NC(c3cccs3)=Nc3ccc(C(C)C)cc3N2)cc1,102,103
